# Screening results from PubChem.
# Biofilm kill mix: clotrimazole potentiators killing C. albicans biofilm, primary screen, 4-compound mixtures. C. albicans biofilm persisters + clotrimazole, fluorescence viability; primary screen in compound mixtures of four per well. inhibition, % at 7.6 µM. hit rate 0.02% among 120,000. AID 1242, 2008;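 active means inhibition above 30.3% in the primary screen of four-compound pools, then above 30% when the compound was retested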;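 further: compounds exposed to preformed 24 h biofilms for 48 h; the number belongs to the whole pool; some results filed as inactive read as strong as hits; inactives centre near 12; 0% = biofilm with clotrimazole alone and 100% = kill control; retested singly at about 60 µM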
#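 Probe or stimulus – Clotrimazole 50 µg/mL co-treatment · System – C. albicans biofilms · Schedule – 24 h biofilm formation, then 48 h compound exposure, 37 °C · Evaluation – percent inhibition of biofilm viability · Technique – 2-h Alamar Blue fluorescence, 535/590 nm excitation/emission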
# * hit, by the source's call.
SMILES,Biofilm kill mix
CC(/C=C/c1ccco1)=N\NC(=O)CNc1ccc2ccccc2c1,12.7
Cc1cc(C)nc(SC2c3cccc4cccc(c34)C2NS(=O)(=O)c2ccccc2)n1 (stereo not drawn),16.3
CCN(c1ccccc1)S(=O)(=O)c1ccc(Cl)c(NC(=O)COC(=O)c2ccc[nH]c2=O)c1,30.9
CCOc1cc(S(=O)(=O)N(CC)CC)ccc1Cl,-13.1
CN1CCN(c2ccc(C(CC(N)=O)NC(=O)Cc3ccc(Br)cc3)cc2[N+](=O)[O-])CC1 (stereo not drawn),11.8
CCCC(=O)NC(Nc1ccc(S(=O)(=O)Nc2cc(C)on2)cc1)(C(F)(F)F)C(F)(F)F,16.2
Cc1ccccc1NS(=O)(=O)c1ccc(OCCNS(C)(=O)=O)cc1,-0.9
O=C(CCCO)CCCCCCCCC[C@H]1N[C@H](CO)[C@@H](O)[C@@H]1O,13.2
CC1CC(CCN)(c2ccccc2)C(C)CN1C (stereo not drawn),-32.8
Cc1cc2[nH]cnc2c([N+](=O)[O-])c1C,13.5
O=C(O)c1cccc(NC(=O)c2ccc(Cl)c(S(=O)(=O)N3CCCCCC3)c2)c1,15.0
CCN1CCN(C(=O)C(C)Nc2ccc(OC)cc2OC)CC1 (stereo not drawn),8.8
NC(=S)N(c1ccccc1)c1ccccc1,6.6
CCCn1c(SCC(=O)Nc2cccc(S(=O)(=O)NC3=NCCCCC3)c2)nc2ccccc2c1=O,12.6
Cc1nc(C(=O)NNC(=O)c2ccc(Cl)cc2)cs1,5.8
N#Cc1ccc(C23CC4(C2)[C@H](CN(Cc2ccc(C(F)(F)F)cc2)[C@@H]4c2ccccc2)C3c2ccccc2)cc1 (stereo partly drawn),14.6
FC(F)(F)c1cc(Cl)c2nnc(C(F)(F)Cl)n2c1,20.2
Cc1ccc(C(=O)Nc2nc3n(n2)C(c2ccccc2)CC(=O)N3)cc1 (stereo not drawn),28.4
COc1ccc(Cl)cc1NC(=O)/C=C/C(=O)O,21.0
Cc1ccc(C)c(NC(=S)NNC(=O)c2csc(C(C)C)c2)c1,8.3
COc1ccccc1/C=N/NC(=O)c1ccc(Cn2nc([N+](=O)[O-])cc2C)cc1,11.9
Cc1ccc(SCCC(=O)Nc2cccnc2)cc1,-1.8
O=C(/C=C1\SC(=O)NC1=O)Nc1ccc(F)cc1,5.3
O=C(Nc1nnc(-c2ccncc2)o1)c1ccc(Br)s1,10.2
O=C(Cn1c2ccc(F)cc2c2nc3n(c(=O)c21)CCS3)Nc1ccccc1F,16.5
O=C(O)c1ccc(Nc2nc(-c3cc4ccccc4oc3=O)cs2)cc1O,7.4
Cc1cccc2c1-c1sc(C(=O)Nc3cccc([N+](=O)[O-])c3C)cc1CO2,16.6
O=C(NCC1CCCO1)C(=O)NCC(c1ccco1)N1CCN(c2ccc(F)cc2)CC1 (stereo not drawn),11.3
CCN(CC)c1ccc(C(=O)N/N=C(\C)c2ccc(OC)c(OC)c2)cc1,21.1
COc1ccc(C/C(C)=N/NC(=S)Nc2ccc(C(C)C)cc2)cc1,16.3
COc1cccc(N(CC(=O)Nc2cccnc2)S(C)(=O)=O)c1,-0.7
CC(=O)NNC(=O)CC(=O)Nc1nc(C23CC4CC(CC(C4)C2)C3)cs1,16.2
CC(C)c1ccc(N(C(=O)c2csnn2)C(C(=O)NC(C)(C)C)c2cccnc2)cc1 (stereo not drawn),17.9
CCOC(=O)CCSc1nc(C)c2cc(C)c(C)cc2n1,5.4
CC(C)Oc1cccc(C(=O)C2CCCN(S(=O)(=O)C(C)C)C2)c1 (stereo not drawn),7.9
O=C(COC(=O)c1cccnc1Cl)Nc1ccc2c(c1)OCO2,11.2

# Part of the list above in a different format.
CC1CC(CCN)(c2ccccc2)C(C)CN1C (stereo not drawn)
  Biofilm kill mix: -32.8

O=C(Cn1c2ccc(F)cc2c2nc3n(c(=O)c21)CCS3)Nc1ccccc1F
  Biofilm kill mix: 16.5

COc1cccc(N(CC(=O)Nc2cccnc2)S(C)(=O)=O)c1
  Biofilm kill mix: -0.7

Cc1cc2[nH]cnc2c([N+](=O)[O-])c1C
  Biofilm kill mix: 13.5

# Continuation:
SMILES,Biofilm kill mix
Cc1ccc2ncccc2c1N,12.6
Cc1ccc(-n2c(-c3ccncc3)n[nH]c2=S)cc1C,7.5
Cc1ccc(C)n1-c1ccc(C(=O)NCc2ccncc2)cc1,1.4
CCN(CC)CCN(C(=O)c1ccc(N2C(=O)CCC2=O)cc1)c1nc2cc3c(cc2s1)OCO3,4.2
Cc1ccc(C)n1CCN1CCN(C(=O)c2ccc(Cl)cc2)CC1,15.7
Cc1onc(-c2ccccc2)c1NC(=O)N(CCC(=O)O)Cc1ccccc1,19.9
Cc1ccc(S(=O)(=O)C(C#N)c2nc3ccccc3nc2OCCO)cc1 (stereo not drawn),12.4
CN(C)S(=O)(=O)c1cccc(NC(=O)CN2C(=O)NC(CCc3ccccc3)C2=O)c1 (stereo not drawn),19.6
N/C(=N\N=C\c1cccs1)SC1CC(=O)N(c2cccc([N+](=O)[O-])c2)C1=O (stereo not drawn),15.2
Cc1cccc(N=C2NC(=O)c3cc([N+](=O)[O-])ccc32)c1,11.7
Cc1cc(C(C#N)c2ccccc2F)n2ncnc2n1 (stereo not drawn),22.4
O=C(NC(=S)N(CCO)Cc1ccccc1)c1cc(Br)ccc1Cl,11.3
O=C(Nc1cccc([N+](=O)[O-])c1)C1CC(=O)N(Cc2ccccc2)C1 (stereo not drawn),5.4
CCCCCc1ccc(-c2ccc(OCC)cc2)nc1,30.6
CCCCCCN(C(=O)CCCCCN1C(=O)NC(c2ccc(-c3ccccc3)cc2)C(C(=O)OCc2ccccc2)=C1C)C(C(=O)NCCCC)c1ccccc1 (stereo not drawn),9.1
CN(CC(=O)N1CCCCCC1)S(=O)(=O)c1ccc(F)cc1,7.2
COc1ccc(CN(C2CCCCC2C)S(=O)(=O)c2ccc(S(=O)(=O)N(C)C)cc2)cc1OC (stereo not drawn),11.5
COc1ccc(CCNC(=O)c2cc(-c3ccco3)on2)cc1OC,16.9
COc1cc(/C=C/C(=O)OCC(=O)Nc2ccc3c(c2)OCCO3)ccc1OCC#N,-28.6
COc1cc(-c2cc(-c3ccc(F)cc3)nc(N)c2C#N)ccc1O,4.7
CCOC(=O)N1CCC(N2CCCC(CO)(Cc3cccc(OC)c3)C2)CC1 (stereo not drawn),5.8
Cc1ccc(SCC(=O)Nc2ccc(N3CCOCC3)cc2)c(C)c1,15.9
Cn1cc([N+](=O)[O-])c(C(=O)N(Cc2ccccc2)Cc2ccccc2)n1,10.1
O=C(O)COc1ccc(/C=C/c2ccc3cccc([N+](=O)[O-])c3n2)cc1,13.8

# Overlap with the part before: 2 entries, then new ones.
SMILES,Biofilm kill mix
Cn1cc([N+](=O)[O-])c(C(=O)N(Cc2ccccc2)Cc2ccccc2)n1,10.1
O=C(O)COc1ccc(/C=C/c2ccc3cccc([N+](=O)[O-])c3n2)cc1,13.8
COc1ccc(/C(O)=C2\C(=O)C(=O)N(CCN(C)C)C2c2cccc(OC)c2OC)cc1 (stereo not drawn),16.5
COc1ccccc1C1=NOC(C)(c2sc(-c3ccc(Cl)cc3)nc2C)C1 (stereo not drawn),19.5
CC(C)C[C@H](NC(=O)[C@@H]1O[C@H]1C(=O)O)C(=O)NCCCCN=C(N)N,12.6
CCOC(=O)CSc1nc(N)nc(C)c1Cl,10.0
COc1cc(Cl)c(C)cc1NC(=O)CSc1ccccc1,11.6
CC(=O)N1CCN(Cc2nc3cc(Cl)ccc3c(=O)[nH]2)CC1,2.3
Oc1ccc(NCc2cccc(OCc3ccc(F)cc3)c2)cc1,14.8
Nc1ncc(Br)cc1S(=O)(=O)NCCC(=O)N1CCN(c2ccccn2)CC1,-1.7
CN(C(=S)NC(=O)/C=C/c1ccc(F)cc1)C1CCCCC1,8.4
COc1cccc(/C=C2\SC(=S)N(C(C(=O)O)c3ccccc3)C2=O)c1OC (stereo not drawn),20.8
Cc1occc1-c1n[nH]c(=S)n1-c1ccccc1,10.3
CCN(CC(O)COc1ccc(OCC(O)CN(CC)C2CCCCC2)cc1)C1CCCCC1 (stereo not drawn),15.8

# Compounds shown so far with an NH in an aromatic ring:
SMILES,Biofilm kill mix
CCN(c1ccccc1)S(=O)(=O)c1ccc(Cl)c(NC(=O)COC(=O)c2ccc[nH]c2=O)c1,30.9
Cc1cc2[nH]cnc2c([N+](=O)[O-])c1C,13.5
Cc1ccc(-n2c(-c3ccncc3)n[nH]c2=S)cc1C,7.5
CC(=O)N1CCN(Cc2nc3cc(Cl)ccc3c(=O)[nH]2)CC1,2.3
Cc1occc1-c1n[nH]c(=S)n1-c1ccccc1,10.3

# (further entries)
SMILES,Biofilm kill mix
O=c1[nH]c(C2CCN(S(=O)(=O)c3ccccc3)CC2)nc2c1nnn2Cc1ccccc1,7.3
O=C(COC(=O)c1ccccc1NS(=O)(=O)c1ccc(Cl)cc1)NCc1ccccc1,18.1
O=C(NC(c1ccccc1)c1cc(Cl)c2cccnc2c1O)c1cccnc1 (stereo not drawn),14.1
Cc1ccc(NC(=O)CO/N=C/c2ccccc2C)c(C)c1,6.5
Fc1ccc(Nc2ccc(-c3ccc(F)cc3)nn2)cc1,-10.3
C=CCN(c1ccccc1C(=O)NCC(=O)OCC)S(=O)(=O)c1ccc(C)cc1,26.4
CC(C)NC(=S)N/N=C/c1cc(Br)ccc1O,-3.9
CCNC(=O)C(C)Oc1ccc(Cl)cc1Cl (stereo not drawn),10.5
CC(C)c1ccccc1NC(=O)COc1ccc(C(=O)NCCc2ccccc2)cc1,12.7
CCC1(c2ccccc2)NC(=O)N(CC#N)C1=O (stereo not drawn),10.8
Cc1cc(=O)n2c(nc3ccccc32)[nH]1,15.1
CCN1CCN(C(c2ccccc2)c2nnnn2Cc2ccccc2)CC1 (stereo not drawn),13.8
C/C=C/c1ccc(OCCCCOc2c(OC)cccc2OC)c(OC)c1,20.4
Brc1ccc2c(c1)C(C1=NCCN1)c1ccccc1CS2 (stereo not drawn),3.9
COc1ccc(C(=O)Nc2nc(-c3cccs3)c(NC(C)=O)s2)cc1,10.7
COCC(=O)Nc1ccc([N+](=O)[O-])cc1C,16.1
CCOC(=O)C1(CCOc2ccccc2)CCN(Cc2nccn2CC)CC1,7.8
CC(Cc1cccnc1)NC(=O)CCc1nnc(-c2ccccc2)o1 (stereo not drawn),26.8
C=C(C)c1cccc(C(C)(C)NC(=O)Nc2ccc(C)cn2)c1,12.2
Cc1ccc(NCN2C(=O)C3CC=CCC3C2=O)cc1 (stereo not drawn),9.7
O=C(Nc1cccnc1)c1sc2cccc(F)c2c1Cl,10.6
Cc1cc(C)c2nc(-c3ccccn3)cc(C(=O)NCc3ccc(S(N)(=O)=O)cc3)c2c1,13.8
CN1C(=O)/C(=C/C=C2\SCCN2C)OC1=S,9.4
O=C(COC(=O)C1CCN(S(=O)(=O)c2cccc3cccnc23)CC1)c1ccccc1,21.0
CC(C)OC(=O)CCCNc1ccc([N+](=O)[O-])cc1[N+](=O)[O-],2.2
O=c1[nH]c2ccccc2n2c(=S)[nH]nc12,3.0
Nc1cc2c(cc1C(=O)c1cccc(Br)c1)OCCO2,11.5
Oc1ccc(/C=N/NC(=S)Nc2cccnc2)c(O)c1O,-6.0
Cc1c(NC(=O)c2ccc(N(C)S(=O)(=O)c3ccccc3)cc2)c(=O)n(-c2ccccc2)n1C,11.7
CC1(C)Cc2nc3sc(C(=O)NCCO)c(N)c3cc2CO1,7.0
NS(=O)(=O)c1ccc(CCNC(=S)Nc2ccc(F)cc2)cc1,9.2
COC(=O)c1cc(C(=O)OC)cc(-n2c(C)cc(C=O)c2C)c1,12.4
O=C(COc1ccccc1[N+](=O)[O-])NCCC1=CCCCC1,12.9
CNC(=S)Nc1cccc(S(=O)(=O)NC2=NCCC2)c1,12.9
CCNS(=O)(=O)c1ccc(CCC(=O)Nc2ccc(C(=O)OC)cc2)cc1,7.1
CC(=O)c1cccc(NC(=O)C2CCN(S(=O)(=O)c3ccc(C)cc3)CC2)c1,6.2
Cc1cccc(C)c1OCC(C)N (stereo not drawn),17.3
O=C(Nc1ccccc1N1CCCC1)c1cccnc1Cl,-5.7
COc1ccc(CNC(=O)COC(=O)c2ccc(OCc3c(C)noc3C)cc2)cc1OC,15.3
CCN(CC)S(=O)(=O)c1ccc(N2CCOCC2)c(NC(=S)NC(=O)c2ccco2)c1,-0.9
COCCNC(=S)Nc1ccccc1[N+](=O)[O-],12.9
COc1ccc(Cl)cc1N(CC(=O)N(C)C)S(=O)(=O)c1ccc(C)c([N+](=O)[O-])c1,10.7
CCCNC(=S)N1CCN(C)CC1,11.0
Cc1ccc(S(=O)(=O)NC(C(=O)N2CCOCCOCCOCC2)c2ccccc2)cc1 (stereo not drawn),6.8
Cn1c(=NC(=O)c2ccccc2[N+](=O)[O-])sc2cc(S(C)(=O)=O)ccc21,9.8
CN(C)/N=C/C=C1\CCC/C(=C\c2ccc(F)c(F)c2)C1=O,-0.5
Cn1nc([N+](=O)[O-])nc1Sc1nnnn1-c1ccc(C(=O)O)cc1,2.6
CCOc1c(OC(C)=O)ccc(/C=C/c2ccc3cccc(OC)c3n2)c1[N+](=O)[O-],15.7
Cc1cc([N+](=O)[O-])ccc1NC(=O)c1cccc(NC(=O)C(C)C)c1,23.1
CC(/C=C1\SC(=S)N(c2ccc(C(=O)O)cc2)C1=O)=C\c1ccccc1,-2.1
Cc1ccc(NC(=O)COC(=O)C2COc3ccccc3O2)cc1S(=O)(=O)N1CCOCC1 (stereo not drawn),13.9
NNC(=O)COc1ccc(F)cc1,28.1
Cc1ccc(CSc2nnc(-c3ccncc3)o2)c(C)c1,18.8
CC(=O)NN1C(=O)c2ccccc2NC1c1ccccn1 (stereo not drawn),20.7
COc1ccc2c(CC(=O)Nc3cccc(S(=O)(=O)N4CCOCC4)c3)coc2c1,14.1
Cc1cc(C(=O)Nc2ccc3c(c2)OCCO3)c2ccccc2n1,-0.9

# Not all compounds are listed (hit frequency here may not be typical).
